Screening results (PubChem BioAssay)
gsp antagonist: qHTS for Antagonists of gsp, the Etiologic Mutation Responsible for Fibrous Dysplasia/McCune-Albright Syndrome: qHTS | gsp-mutant cells, cAMP HTRF, 30 min; control for the full effect not named in the record | Potency, µM (titrated, usually from 76.9 µM), for the others: top-dose activity change, negative = inhibition, hits mostly inhibitors | hit rate 0.4% among 340,000; active = falling curve of any shape with a large fitted effect; inconclusive = falling curve, mostly with a smaller effect; inactive = flat or rising curve; cell line not stated here;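 further: intracellular cAMP measured with PDE inhibitor Ro 20-1724 present during compound exposure; potency means the concentration at half of the fitted maximal effect; on the % scale 0 is the no-effect control and ±100 the full control effect; nearly all actives have a fitted effect of over 65% in size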
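G418-selected cells were plated in DMEM/10% FBS for 16-24 h at 37C, then treated with compounds plus the PDE inhibitor […] (300 uM solution added) for 30 min at 37C. Intracellular cAMP was measured by HTRF after 30 min lysis at room temperature.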
TRPV1 potentiator: HTS Assay for Compounds that Act as Potentiators of the Vanilloid Receptor 1; TRPV1-expressing cells, Fluo-8 calcium influx, capsaicin EC20 potentiation; host cell line not named in the record; control for the full effect not named in the record; hit rate 0.02% among 320,000; potentiation, % at 8.33 µM; AID 540277, 2011; active means potentiation above 80%; inconclusive means 30% to 80%; inactive means below 30%; further: 0% is about no effect
Target sequence (Q8NER1 whole entry, looked up): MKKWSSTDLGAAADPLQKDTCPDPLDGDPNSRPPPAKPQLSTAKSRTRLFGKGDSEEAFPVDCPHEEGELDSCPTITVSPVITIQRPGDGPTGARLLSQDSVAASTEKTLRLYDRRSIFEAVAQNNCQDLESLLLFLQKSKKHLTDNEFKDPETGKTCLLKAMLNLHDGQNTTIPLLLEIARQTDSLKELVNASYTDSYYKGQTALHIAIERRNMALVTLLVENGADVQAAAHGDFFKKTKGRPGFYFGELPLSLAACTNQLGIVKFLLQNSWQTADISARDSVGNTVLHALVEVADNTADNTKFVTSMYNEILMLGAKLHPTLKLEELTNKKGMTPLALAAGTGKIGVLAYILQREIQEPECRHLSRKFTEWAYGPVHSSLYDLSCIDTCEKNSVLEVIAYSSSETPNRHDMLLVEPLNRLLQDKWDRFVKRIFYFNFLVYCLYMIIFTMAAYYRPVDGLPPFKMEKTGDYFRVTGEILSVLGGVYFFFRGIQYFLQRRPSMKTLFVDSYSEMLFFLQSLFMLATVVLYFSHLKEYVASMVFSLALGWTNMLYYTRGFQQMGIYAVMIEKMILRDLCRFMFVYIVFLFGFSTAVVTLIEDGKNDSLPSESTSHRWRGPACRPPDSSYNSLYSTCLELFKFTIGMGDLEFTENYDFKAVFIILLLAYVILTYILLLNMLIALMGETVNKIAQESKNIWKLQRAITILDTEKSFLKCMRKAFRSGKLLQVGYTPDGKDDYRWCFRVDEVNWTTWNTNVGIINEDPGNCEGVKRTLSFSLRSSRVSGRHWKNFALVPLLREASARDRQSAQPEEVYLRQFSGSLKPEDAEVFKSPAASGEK
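Cells expressing TRPV1 were dye-loaded with Fluo-8 and read kinetically: 10 s baseline, 3 min after compound (agonist portion), then 2 min after EC20 capsaicin (allosteric enhancer portion). Calcium-bound dye fluorescence at 480/520 nm.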
Menin-MLL FL inh: qHTS Assay for Inhibitors Targeting the Menin-MLL Interaction in MLL Related Leukemias: Competition With Fluorescein Labeled MLL-derived Peptide | Fluorescence polarization, fluorescein-MLL peptide displacement from menin | FP activity change, % at 61.4 µM | 290,000 tested, under 10 active; inconclusive = falling polarisation curve, or a change in total fluorescence; inactive = total fluorescence flat and polarisation flat or rising; no compound was filed as active; the % refers to the polarisation; negative = inhibition;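 further: % of control where 0% means no effect; inhibitors lower the polarisation; unlabelled MLL peptide was the positive control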
Sfp inh: qHTS Assay for Inhibitors of Bacillus subtilis Sfp phosphopantetheinyl transferase (PPTase); 4'-phosphopantetheinyl transferase ffp (Bacillus subtilis), Q9F4F7; Biochemical Sfp PPTase activity, qHTS; Potency, µM, for the others: max response, negative = inhibition, actives largely listed as inhibitors; hit rate 3.5% among 310,000; active means well fitted inhibition curve with a large enough effect; inconclusive means small, poorly fitted or top-dose-only effect, or another doubt; inactive means no such curve, though single readings can be large or run the other way;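 further: the enzyme is Sfp with the accession as filed and its product quenches rhodamine fluorescence; potency means the concentration at half of the fitted maximal effect; 0% = enzyme reaction without inhibitor and -100% = no enzyme wells; top concentration of the series not given in the record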
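Step 1, compound plus 15 nM Sfp-PPTase, 15 min, room temperature. Step 2, add rhodamine-CoA (5 uM) and BHQ-2-YbbR (12.5 uM). Step 3, read 525/598 nm fluorescence at 0 and 30 min.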
TRPML1 blocker: qHTS for Inhibitors of the Human Mucolipin Transient Receptor Potential 1 (TRPML1) | TRPML1-inducible cells, Ca2+ dye fluorescence, FDSS; stronger effect = lower value; inhibition of EC80 agonist-evoked calcium signal | Mucolipin-1 (Homo sapiens), Q9GZU1 | activity change, negative = inhibition, % (test concentration not listed) | hit rate 0.02% among 390,000 | AID 624415, 2012; in the data active means activity change below about -50%; inconclusive means about -30% to -50%; inactive means above about -30%;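 further: stimulus is agonist 54-4 at its EC80 concentration; on the % scale 0 is the no-effect control and ±100 the full control effect; compound concentration not given in the record; the text of the record puts the active cut at -80%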
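TRPML1-DL cells, Tet-induced overnight (~16 h, 37 °C) at 1,500 cells/well, were loaded with Ca8 no-wash dye plus quencher for 45-90 min at room temperature. Compounds were pinned during FDSS kinetic reading; agonist 54-4 at EC80 (4 uM final) then added.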
gsp ag: qHTS for Agonist of gsp, the Etiologic Mutation Responsible for Fibrous Dysplasia/McCune-Albright Syndrome: qHTS | gsp mutant cells, cAMP HTRF, 30 min; control for the full effect not named in the record | Potency, µM (doses to about 76.9 µM), for inactives: at the top dose activation (cAMP increase), actives largely listed as activators | hit rate 0.13% among 340,000 | AID 624287, 2012; active = well fitted activation curve with a large enough effect; inconclusive = small, poorly fitted or top-dose-only effect, or another doubt; inactive = no such curve, though single readings can be large or run the other way; cell line not stated here;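 further: phosphodiesterase inhibitor Ro 20-1724 added with compounds to block cAMP breakdown; potency means the concentration at half of the fitted maximal effect; nearly all actives have a fitted effect of over 60% in size; about a fifth of the inactives were tested at one dose only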
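Cells in DMEM/10% FBS with G418 were pretreated with compounds in DMSO plus […] (300 uM stock) for 30 min at 37C. cAMP was measured by HTRF (cAMP-d2 plus anti-cAMP antibody-K) after 30 min at room temperature.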
ClpP mod: qHTS Assay for Activators of ClpP; ATP-dependent Clp protease proteolytic subunit (Bacillus subtilis (strain 168)), P80244; purified B. subtilis ClpP, FRET peptide cleavage, 20 min; Potency, µM (top dose mostly 57.5 µM), for the others: top-dose activity change, negative = active; hit rate 1.9% among 340,000; AID 651965, 2013; active = well fitted falling curve with a large enough effect; inconclusive = small, poorly fitted or top-dose-only effect; inactive = no such curve, though single readings can be large or run the other way; further: potency means the concentration at half of the fitted maximal effect; the source files actives as falling curves though it sought activators and does not explain the sign; nearly all actives have a fitted effect of over 65% in size; many hits overshoot -100%
Target sequence (P80244 whole entry, looked up): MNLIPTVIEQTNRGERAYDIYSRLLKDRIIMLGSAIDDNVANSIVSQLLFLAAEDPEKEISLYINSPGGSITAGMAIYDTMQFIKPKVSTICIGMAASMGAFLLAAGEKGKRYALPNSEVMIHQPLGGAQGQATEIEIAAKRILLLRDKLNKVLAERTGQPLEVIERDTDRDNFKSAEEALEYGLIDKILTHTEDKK
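Purified B. subtilis ClpP, 10 microg/mL final in Tris/HCl pH8 with KCl, BSA, glycerol and Tween-20, cleaved an Abz/nitrotyrosine-quenched decapeptide. Fluorescence (ex 320, em 430) was read at 0 and 20 min at room temperature. Delta was normalized to 5.8 microM ADEP and DMSO/no-enzyme controls.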
The depositor's hits bear a star; ? = inconclusive; nt = no result given; & = joins results of further samples; [ ] = dose if it differs, or a comment. An unsorted share of the library, and some 4.9% of all compounds hit somewhere here.

SMILES	gsp antagonist	TRPV1 potentiator	Menin-MLL FL inh	Sfp inh	TRPML1 blocker	gsp ag	ClpP mod
COc1ccccc1Oc1ccc2c(c1)C(=O)N(c1cccc(O)c1)C2=O	?	-5	0.3	-15%	20	-5%	-0.6%
COc1ccc(C(=O)Nc2ccccc2C(=O)N2CCCCCC2)cc1	2%	-3	-2.3	13%	7	6%[15.4 µM]	nt
N#CCCSc1nc(N2CCOCC2)c2c(c1C#N)CCCC2	?	18	5.7	3%	42	8%	-1.8%
CC(C)c1cc(CNC(=O)c2cc(COc3cncc(Cl)c3)on2)on1	5%	-12	-1.2	23%	-12	23%	0.6%
CN(Cc1nnc(SCC(=O)NCCc2ccccc2)n1C)S(=O)(=O)c1ccccc1	4%	-3	-2.1	7%	12	-12%	-0.5%
COc1ccccc1N(CC(=O)NCc1cccnc1)S(C)(=O)=O	4%	4	-0.2	9%	-7	5%	1.0%
Cc1cn([C@H]2C[C@H](O)[C@@H](CCC(=O)NCc3ccc(N(C)C)cc3)O2)c(=O)[nH]c1=O	nt	nt	nt	nt	0	-41%[inhibitor]	-1.2%
Cn1c(SCC(=O)NC(c2ccccc2)c2ccccc2)nnc1-c1cccs1	-10%	7	-2.6	-3%	10	?	-1.4%
CCOc1ccc(OCCC(=O)OCC(=O)NNC(=O)c2ccccc2)cc1	3%	-6	nt	nt	11	-6%[15.4 µM]	nt
CCOC(=O)c1nnn(CC(=O)Nc2cccc(OC)c2)c1C(=O)OCC	-4%	7	-2.3	-3%	-9	13%	1.3%
CCOc1ccccc1NC(=O)C1CCCC1	12%	nt	nt	nt	23	-9%	nt
CCCOP(=O)(c1ccc(N(C)C)cc1)C(O)c1ccc(Cl)cc1Cl (centres undefined)	-6%	-12	-11	-10%	26	-1%[15.4 µM]	nt
COc1ccc(Br)cc1C(=O)N/N=C/c1ccc([N+](=O)[O-])cc1	-10%	8	-0.6	-9%	8	-18%[15.4 µM]	nt
CC1(C)CC(NCc2cccc([N+](=O)[O-])c2)CC(C)(C)N1	13%	4	3.2	3%	48	-1%[15.4 µM]	-0.4%
CCc1noc(C)c1C(=O)Nc1nc(-c2ccc(Cl)cc2Cl)cs1	-21%	10	-4.3	19%	16	17%	1.6%
Cc1ccc2c(c1)c1c3n2CCN=C3CCC1	-11%	-14	1.2	4%	-10	7%	-15%
CC(OC(=O)Cc1ccc(Br)cc1)C(=O)NC1CCCCC1C (centres undefined)	-10%	-26	nt	2%	19	-13%[15.4 µM]	-0.4%
O=C(Nc1cnn(Cc2ccccc2)c1)c1nc2ncccn2n1	6%	9	0.1	3%	10	-31%	-0.6%
C#CCSC1=C(C#N)C(c2cccs2)C(C(=O)OCC)=C(C)N1 (centres undefined)	-14%	-7	0.8	28µM*	4	14%	-2.7%
Cc1nc2sc(C(c3cccc(F)c3)N3CC(C)OC(C)C3)c(O)n2n1 (centres undefined)	12%	8	2.9	4%	10	12%[15.4 µM]	0.1%
COc1ccc(C(C)=O)cc1CC(=O)N(Cc1ccccc1)c1ccccc1	?	19	1.7	-2%	3	17%[15.4 µM]	-11%
COc1ccc(/C=N/NS(=O)(=O)c2ccc(F)cc2)cc1CN1CCSCC1	-4%	1	-0.6	-18%	-7	-8%[15.4 µM]	4.9%
O=C(NC1CCCN(Cc2ccc(Cl)cc2)C1)C1CCC1 (centres undefined)	0%	3	3.9	6%	18	-24%	nt
Cn1nc(CC(=O)NC2CCCCC2)c2ccccc2c1=O	-20%	8	-3.6	14%	10	1%	-1.8%
COc1c(C)oc2cc(O)ccc2c1=O	11%	1	2.5	28%	20	-24%	18µM*
The results go on:
SMILES	gsp antagonist	TRPV1 potentiator	Menin-MLL FL inh	Sfp inh	TRPML1 blocker	gsp ag	ClpP mod
S=c1[nH]nc(C2CCCCC2)n1Cc1ccccc1	-2%	?	3.6	-4%	13	28%	nt
CCCSc1cc(NCCOC(C)=O)c([N+](=O)[O-])c2nonc12	-6%	2	0.3	-17%	-2	2%[15.4 µM]	nt
CCOc1ccc(NS(=O)(=O)c2ccc(C(=O)NC3CCN(Cc4ccccc4)CC3)cc2)cc1	-3%	2	nt	nt	-9	-12%	28µM*
CCn1nnc2cc(C(=O)N(CCOC)CC(=O)Nc3cccc(C)c3C)ccc21	5%	-3	nt	nt	5	15%	-19%
CC(C)c1ccc(NC2CCCN(C(=O)CSc3nncn3C)C2)cc1 (centres undefined)	-11%	-1	2.8	6%	6	6%	1.7%
Cc1cc(C)n2nc(CNS(=O)(=O)c3ccc(F)cc3)nc2n1	9%	-4	-5.4	11%	4&2	11%	0.2%&1.6%
O=C1CC(N2CCN(c3cccc(C(F)(F)F)c3)CC2)C(=O)N1c1ccccc1 (centres undefined)	11%	5	3.2	12%	5	8%	2.4%
O=C(C1CC1)N1CCc2cc(S(=O)(=O)NCC3COc4ccccc4O3)ccc21 (centres undefined)	-28%	-1	3.2	-13%	1	-11%	-0.6%
O=C(CCn1c(=S)[nH]c2ccccc2c1=O)Nc1ccc(F)cc1	-4%	-3	nt	6%	82	?	nt
O=C1COc2ccc(C(=O)COc3ccc([N+](=O)[O-])cc3)cc2N1	3%	-8	-2.7	1%	-9	?	-0.3%
NC(=O)CC(NC(=O)Cc1cccc2ccccc12)c1ccc(NCc2ccc(F)cc2)c([N+](=O)[O-])c1 (centres undefined)	4%	10	2.2	-27%	-23	nt	1.5%
Cc1c(CCC(=O)NCCCn2ccnc2)c(=O)oc2c(C)c3occ(C(C)(C)C)c3cc12	-10%	-19	-6.6	-16%	-9	-37%[inhibitor]	?
O=C(CCNC(=O)c1ccc([N+](=O)[O-])cc1)Nc1cc(C(F)(F)F)ccc1N1CCOCC1	nt	nt	nt	nt	12	-81%[inhibitor]	-0.8%
NC(=O)/C(=C\c1cccnc1)NC(=O)c1ccccc1	0%	-11	5.4	4%	5	-27%	-0.5%
Cc1sc(NC(=O)CN2CCN(c3ccccn3)CC2)c(C#N)c1C	9%	-5	1.8	-6%	-14	-2%	-1.5%
CCOC(=O)c1c(NC(=S)Nc2ccc(F)cc2)sc2c1CCC2	16%	5	-0.4	-6%	3	30%	18%
O=C(NCCc1ccc(C(F)(F)F)cc1)c1ccc2c(c1)OCO2	0%	-7	nt	nt	-17	-23%	-2.6%
CC(OC(=O)/C=C/c1ccc(Br)cc1)C(=O)N1CCOCC1 (centres undefined)	12%	-14	nt	nt	-2	-7%	-5.1%
O=C(CC1C(=O)NCCN1Cc1c(F)cccc1Cl)NC1CCCC1 (centres undefined)	18%	2	0.2	9%	16	-10%[15.4 µM]	nt
CCC(Sc1nnc(-c2ccco2)n1C)C(=O)Nc1nnc(C)s1 (centres undefined)	-8%	8	7.1	26%	15	?	nt
CCN1CCN(c2ccc([N+](=O)[O-])cc2C(=O)c2ccc(Cl)cc2)CC1	4%	-20	4.1	-15%	12	27%	0.0%
Cc1cc2c(Nc3cccc(O)c3)ncnc2s1	-2%	10	-2.8	-11%	30	14%	-0.6%
O=C(NN=Cc1ccccc1)NN=Cc1ccccc1	-16%	nt	nt	nt	5	23%	nt
O=C(COc1cccnc1[N+](=O)[O-])NCc1cccs1	nt	7	-0.7	12%	-7	18%[15.4 µM]	nt
COc1ccccc1NC(=O)c1ccc2[nH]c(C)c(C)c2c1	?	?	8.7	-1%	6	-10%	-21%
Further entries.
SMILES	gsp antagonist	TRPV1 potentiator	Menin-MLL FL inh	Sfp inh	TRPML1 blocker	gsp ag	ClpP mod
CCOc1cccc(-c2cc(=O)[nH][nH]2)c1	6%	-6	1.3	14%	23	27%	14µM*
COc1ccc2[nH]c(=S)[nH]c2c1	4%	3	3.5	-1%	51	-18%	2.7%
COc1cc(C)ccc1NC(=O)c1ccc(S(=O)(=O)N2CCOCC2)cc1	-13%	-11	8.5	13%	-4	0%	-0.2%
Cc1ccc(Nc2nc(-c3cccnc3)cs2)cc1C	-2%	9	7.5	-3%	nt	-8%	-1.9%
CCOC(=O)C1CCN(C(=O)c2ccc(OC)cc2OC)CC1	8%	2	-1.1	3%	-4	-26%	-1.2%
Cc1ccc2nc(NCc3ccccc3)c(C=NCc3ccccc3)c(=O)n2c1	-1%	8	1.0	?	-8	-12%	nt
COc1ccc(OC)c(NC(=O)COC(=O)C2CCN(C(=O)c3ccc(Cl)cc3)CC2)c1	-20%	0	3.2	9%	14	-9%[15.4 µM]	nt
O=C(COC(=O)CNC(=O)c1ccccc1)NCCCc1ccccc1	-10%	nt	nt	nt	-9	-7%	nt
CCOc1ccccc1NC(=O)CSc1nnc(C2CC2)n1CC	-2%	5	-2.6	-7%	1	-5%	nt
COc1ccc(-n2nc(C(=O)N(C)C3CCCCC3)c3ccccc3c2=O)c(OC)c1	-11%	-16	3.5	15%	20	3%	0.6%
C=CCNC(=O)c1cc(=O)c2ccccc2o1	5%	-1	-2.8	12%	13	9%	-2.3%
COc1ccc(/C=C2/SC(=O)N(CCC(=O)Nc3ccccc3)C2=O)cc1OC	?	8	6.4	-5%	14	-15%	0.7%
COc1ccc(S(N)(=O)=O)cc1C(=O)NCCCN1CCN(c2cccc(Cl)c2)CC1	0%	-1	-1.3	20%	10	4%	-3.9%

Ordered by the number under gsp ag (lowest first): 3 from the list above.
Compound,gsp ag
CCOC(=O)C1CCN(C(=O)c2ccc(OC)cc2OC)CC1,-26%
COc1cc(C)ccc1NC(=O)c1ccc(S(=O)(=O)N2CCOCC2)cc1,0%
COc1ccc(S(N)(=O)=O)cc1C(=O)NCCCN1CCN(c2cccc(Cl)c2)CC1,4%
